Assay outcomes from PubChem.
H5N1 antiviral: antiviral screen in MDCK cells, H5N1 avian flu; inhibition, % at 50 µM; hit rate 0.07% among 96,000; AID 740; cytopathic effect, luminescence, 72 h; stronger effect = higher value; no value below 0 was filed and about half of the inactive calls have no number; reference of the scale not given here; in the data active = inhibition above about 25%
* hit, by the source's call; i = inactive. An excerpt, so the mix of outcomes need not match the whole.

SMILES	H5N1 antiviral
CCOc1cc(/C=N/NC(=O)CN2CCCCC2)ccc1OCc1ccccc1	0.1
Cc1cc(C)n2[nH]c(=O)c(N=Nc3cccc(Cl)c3)c2n1	2.6
CC1CC(C)CN(S(=O)(=O)c2cccc(C(=O)N3C(=O)c4cccc(N)c4C3=O)c2)C1 (stereo unspecified)	0.1
OC(CN1CCN(c2ccccc2)CC1)c1c[nH]c2ccccc12 (stereo unspecified)	i
Cc1ccc(C)c(Cn2c(CN(C)Cc3ccccc3)nc3c2c(=O)n(C)c(=O)n3C)c1	2.7
Cc1ccc(S(=O)(=O)N2CCN(C(=O)CSc3nnc(-c4ccco4)o3)CC2)cc1	4.2
CC(NC(=O)c1csc2ccccc12)C1CCCO1 (stereo unspecified)	11.2
Cc1ccc(S(=O)(=O)c2c(COC(=O)c3ccccc3Cl)c(-c3ccccc3)nn2C)cc1	1.6
Cc1onc(-c2c(Cl)cccc2Cl)c1C(=O)c1c[nH]c(C(=O)NCCCN2CCOCC2)c1	0.5
COc1ccc(O)c(-c2c(-c3ccc(Cl)cc3)n[nH]c2C)c1	4.9
CN1CCc2c(n(CC(O)CN3C(=O)c4ccccc4S3(=O)=O)c3ccccc23)C1=O (stereo unspecified)	1.8
Cc1ccccc1NS(=O)(=O)c1ccc2[nH]cc(C(=O)NCCCN3CCOCC3)c(=O)c2c1	i
O=C(NCc1ccncc1)Nc1ccc(F)cc1	0.7
CN(CC(=O)Nc1sccc1C#N)C1CCCCC1	2.4
Cc1noc(C)c1COC(=O)c1cccc(S(=O)(=O)N2c3ccccc3CC2C)c1 (stereo unspecified)	2.9
COCCNC(=O)c1c(N)n(/N=C/c2cccs2)c2nc3ccccc3nc12	i
COc1cccc(S(=O)(=O)NCc2ccc(C(=O)NCc3ccco3)cc2)c1	i
O=C(NCCCO)c1nc2ccccc2s1	0.4
c1ccc(-c2noc(CN3CCN(c4ccccc4)CC3)n2)cc1	0.3
Cc1ccc(-c2nc(CS(=O)CC(=O)NCCN3CCOCC3)c(C)o2)cc1 (stereo unspecified)	1.8
O=C(Nc1cccnc1)c1ccccc1Oc1ccccc1	0.7
CC(C)CCNC(=O)C1CCN(c2nc3ccccc3o2)CC1	i
COc1cc(NS(=O)(=O)c2ccc(C)cc2C)cc(OC)c1OC	0.6
O=C(COc1ccc(/C=N/NC(=O)c2cc3ccccc3o2)cc1Br)Nc1ccccc1	i
Cc1nn(C)c(C(=O)Nc2ccn(Cc3c(F)c(F)cc(F)c3F)n2)c1[N+](=O)[O-]	0.5
CCOC(=O)Cc1c(C)nc2c(-c3ccc(OC)cc3)c(C)nn2c1C	0.5
CC(C)(C)n1nnnc1C(c1ccccn1)N(Cc1ccccc1)Cc1ccc(Cl)cc1 (stereo unspecified)	3.9
Cc1ccc(N2C(=O)CC(n3nc(C)cc3C)C2=O)cc1 (stereo unspecified)	i
Cc1ccc(C)c(C(=O)CSc2nnnn2C(C)C)c1	0.7
Cc1ccc(S(=O)(=O)NCC(C)NS(=O)(=O)c2ccc(C)cc2)cc1 (stereo unspecified)	1.6
CN1C(=O)NC(=O)C2(Cc3ccccc3N3CCOCC32)C1=O (stereo unspecified)	0.1
CS(=O)(=O)N1CCN(c2nc3ccccc3s2)CC1	i
CCOc1ccccc1N1CCN(S(=O)(=O)c2ccc(F)c(F)c2)CC1	1.1
Cc1ccccc1-n1nc2c(c1NC(=O)c1cc3ccccc3oc1=O)CS(=O)(=O)C2	0.6
Cc1cccc2c1N(CC(=O)OC(C)C)C(=O)C2=O	1.2
COCCn1c(SCc2ccc(C(=O)OC)o2)nc2ccccc2c1=O	i
COC(=O)c1ccc(OCC2c3cc(OC)c(OC)cc3CCN2C(=O)C2CC2)cc1 (stereo unspecified)	0.9
N#CC1=C2C=CC=CN2CC1=O	2.3
COc1ccc(N(C)C(=O)CCS(=O)(=O)c2cccc3nonc23)c(OC)c1	1.5
Cc1ccc(/C=C/C(=O)Nc2cccc3ncccc23)o1	10.1
O=C(c1cc2nc(-c3ccccc3)cc(-c3ccccc3)n2n1)N1CCC2(CC1)OCCO2	1.1
CC1(C)CC2(CC(C)(C(=O)CSc3nc4ccccc4s3)OC2=O)C(=O)O1 (stereo unspecified)	i
CCCCN(CC)C(=O)CSc1cc(=O)n(C)c2ccccc12	2.1
CCOC(=O)c1cc2occc2n1Cc1c(F)cccc1Cl	i
Cc1ccc(Cn2cccc(-c3nc4ccccc4s3)c2=O)cc1	i
CN(/C=C/C(=O)C(F)(F)C(F)(F)F)Cc1ccccc1	i
CCOC(=O)c1sc(NC(=O)CSc2n[nH]c(-c3ccc(Cl)cc3Cl)n2)c(C#N)c1C	0.1
COc1cc2[nH]c(=S)nc(NCC3CCCO3)c2cc1OC (stereo unspecified)	0.1
O=C(CC1Nc2ccccc2NC1=O)NCc1cccnc1 (stereo unspecified)	0.2
Nc1nnc(SCC(=O)NCc2ccc3c(c2)OCO3)s1	i
CCOC(=O)CSc1nnc(-c2ccco2)n1-c1ccc(C)cc1	i
CCS(=O)(=O)N1CCCC(C(=O)NCCN2CCC(Cc3ccccc3)CC2)C1 (stereo unspecified)	0.6
CSc1nnc(-c2ccccc2Cl)n1N	0.0
O=C(CSC1=NCCS1)N1CCc2ccccc21	2.9
C(=C\CSc1ncn[nH]1)/CSc1ncn[nH]1	0.0
Cc1ccc(NC(=O)COC(=O)C2=COCCO2)cc1	0.4
COc1cccc(C2=NOC(C(=O)N3CCN(C(=O)c4ccco4)CC3)C2)c1 (stereo unspecified)	i
O=C(CN1CCOCC1)Nc1ccc(NC(=O)CN2CCOCC2)c(Cl)c1	0.8
C(=N\n1cnnc1SCc1ccccc1)/c1ccco1	3.5
CN(c1ccc(C(=O)NCc2ccc3c(c2)OCO3)cc1)S(C)(=O)=O	0.4

Structures shown so far that contain a thiophene ring, fused or not, in the order listed:
SMILES	H5N1 antiviral
CC(NC(=O)c1csc2ccccc12)C1CCCO1 (stereo unspecified)	11.2
CN(CC(=O)Nc1sccc1C#N)C1CCCCC1	2.4
COCCNC(=O)c1c(N)n(/N=C/c2cccs2)c2nc3ccccc3nc12	i
CCOC(=O)c1sc(NC(=O)CSc2n[nH]c(-c3ccc(Cl)cc3Cl)n2)c(C#N)c1C	0.1

The list goes on:
SMILES	H5N1 antiviral
Cn1c(CN2CCOCC2)c(C#N)c2ccccc21	0.1
O=C(CSc1oc(-c2ccccc2)nc1S(=O)(=O)c1ccc(F)cc1)NCC1CCCO1 (stereo unspecified)	i
CCCc1cc(=O)[nH]c(Nc2ccc(O)cc2)n1	i
Cc1ccc(CNC(=O)Cn2ccc3ccccc3c2=O)o1	1.0
O=C(NC1CCCC1)C1CCCN(S(=O)(=O)c2ccc(-n3cnnn3)cc2)C1 (stereo unspecified)	i
Cc1nc2sc3c(c2c2nc(-c4ccco4)nn12)CCCC3	i
Nn1c(SCC(=O)Nc2ccc(Oc3ccccc3)cc2)nnc1C1CC1	i
NC(=O)c1cccc2c(=O)oc3ccccc3c12	i
CCOc1ncccc1C(=O)OCc1ccc(C(=O)OC)o1	1.0
CSc1nc2ccccc2n1CC(=O)Nc1c(C)n(C)n(-c2ccccc2)c1=O	0.1
Cc1onc(-c2ccccc2)c1C(=O)Nc1nc(-c2ccc(F)c(F)c2)cs1	0.6
COc1ccc(/C=N/NC(=O)c2ccn[nH]2)cc1COc1ccc(Cl)cc1	0.3
O=C(NCCCN1CCN(c2cccc(Cl)c2)CC1)C1CCC(=O)N1Cc1ccccc1Cl (stereo unspecified)	i
CCN1C(=O)N(c2cccc3ccccc23)C(C)=CC1(C)C	1.1
COc1ccccc1-n1c(SCC(=O)N2CCOCC2)nc(O)c(Cc2ccccc2)c1=O	i
CCOCCCN=Cc1c(O)n(Cc2ccccc2)c(=O)[nH]c1=O	0.8
COc1ccc(NC(=O)c2cc([N+](=O)[O-])nn2Cc2ccccc2)c(C)c1	i
CCCCn1nnnc1SCC(=O)Nc1ccc2c(c1)OCCO2	0.2
c1ccc(CNCCN2CCNCC2)nc1	i
Cc1c(Cl)cccc1NC(=O)CN1C(=O)CSc2ncccc21	0.1

Reprinted at random: five entries already listed, in no set order.
SMILES	H5N1 antiviral
O=C(NCCCN1CCN(c2cccc(Cl)c2)CC1)C1CCC(=O)N1Cc1ccccc1Cl (stereo unspecified)	i
COc1ccc(NC(=O)c2cc([N+](=O)[O-])nn2Cc2ccccc2)c(C)c1	i
CSc1nc2ccccc2n1CC(=O)Nc1c(C)n(C)n(-c2ccccc2)c1=O	0.1
CCCCn1nnnc1SCC(=O)Nc1ccc2c(c1)OCCO2	0.2
Cc1onc(-c2ccccc2)c1C(=O)Nc1nc(-c2ccc(F)c(F)c2)cs1	0.6

Back to the main list, repeating the three entries before the break.
SMILES	H5N1 antiviral
CCCCn1nnnc1SCC(=O)Nc1ccc2c(c1)OCCO2	0.2
c1ccc(CNCCN2CCNCC2)nc1	i
Cc1c(Cl)cccc1NC(=O)CN1C(=O)CSc2ncccc21	0.1
COCCSc1ccccc1C(=O)N1CCCC1	0.2
CN(Cc1nc2ccccc2c(=O)[nH]1)Cc1cc(=O)oc2ccc3ccccc3c12	5.7
CC1(C)CC(=O)C2=C(C1)Nc1cc3c(cc1C2c1ccc(F)cc1)OCO3 (stereo unspecified)	5.8
O=c1[nH]c(=S)n(Cc2ccco2)c(O)c1C=NCc1cccs1	i
CCN(C(=O)c1ccccc1Cl)c1ccccc1	2.9
O=C(NC1CCN(C(=S)NCc2ccco2)CC1)C1CCCCC1	0.1
Cc1ccc(CN2C(=O)CCC2C(=O)NC2CC2)cc1 (stereo unspecified)	0.6
O=C(Nc1ccccc1O)c1cc(S(=O)(=O)N2CCOCC2)ccc1Cl	0.9
O=C(NCN1CCN(c2ccccc2F)CC1)c1cccnc1	0.4
Cc1ccc(S(=O)(=O)NC(=O)NCc2ccccc2)cc1	0.4
COc1ccc(-n2c(O)c(/C=N/n3cnnc3)c3ccccc3c2=O)cc1	i
COc1ccccc1-c1nnc(SCc2nc3ccccc3s2)n1C	0.9
Cc1ccc(C(=O)OCc2cc3ccccc3[nH]c2=O)cc1	0.2
CCOC(=O)c1c(C)[nH]c(C(=O)COC(=O)C2CC(=O)N(Cc3ccccc3)C2)c1C (stereo unspecified)	i
FC(F)(F)c1ccc(CN2CCCCCC2)cc1	i
CCOC(=O)Cc1csc(NC(=O)COc2ccc(N(C)S(=O)(=O)c3ccc(C)cc3)cc2)n1	0.4
Cc1cccc(C(=O)N/N=C/c2ccncc2)c1	0.2
COC(=O)c1cc(S(=O)(=O)NC2CCN(Cc3ccccc3)CC2)cn1C	0.2
C=CCNC(=O)CNS(=O)(=O)c1ccc(F)cc1	i
O=C(O)CSc1ccccc1C(=O)O	i
Clc1ccc2c(c1)c1ccccc1n2CN1CCOCC1	0.1
COc1ccccc1N1CC(C(=O)Nc2ccc(S(=O)(=O)N3CCOCC3)cc2)CC1=O (stereo unspecified)	0.1
CN(C)C=NC(=O)c1ccc(N2CCN(c3ncc(C(F)(F)F)cc3Cl)CC2)cc1	0.7
Cc1ccc(NC(=O)c2nn(C34CC5CC(CC(C5)C3)C4)cc2[N+](=O)[O-])cc1	3.4
COc1ccc(N(C(=O)Cn2nnc3ccccc32)C(C(=O)NCc2ccco2)c2ccc(C)o2)cc1 (stereo unspecified)	i
Cn1c(C(=O)NCc2cccs2)cc2c(=O)n(C)c3ccccc3c21	i
CCOc1ccc(Cc2nnc(N)s2)cc1OCC	i
COc1ccc(-n2cnnc2SCc2ncc(-c3ccccc3)o2)cc1	1.1
COc1ccccc1NC(=O)N1CCC(c2nnc(SCC(N)=O)n2C)CC1	i
CCOC(=O)c1ccc(N=c2sc(C(=O)OC)cc(=O)n2Cc2ccco2)cc1	i
Cc1cc(C)n(CC(O)Cn2c3ccccc3c3ccccc32)n1 (stereo unspecified)	i
CSc1nc(-c2ccccc2)[nH]c(=S)c1C(C)=O	0.1
CCOC(=O)C1C(c2ccc(O)c(OCC)c2)NC(=S)NC1(O)C(F)(F)F (stereo unspecified)	i
COc1ccc(CN(C#N)c2nc(SC)nc(N(C)C)n2)cc1	0.3
Cc1cc(NC(=O)c2cc(S(=O)(=O)N3CCCCC3)ccc2C)n(-c2ccccn2)n1	i
CCOC(=O)N1CCC(N2Cc3cccc(C(=O)N4CCN(C5CCCCC5)CC4)c3C2=O)CC1	0.8
Cc1n[nH]c(=S)n(/N=C/c2ccccn2)c1=O	i
Cc1ccc(S(=O)(=O)N2CCOCC2)cc1C(=O)NCc1cccnc1	1.4
CCOc1cccc(C(=O)NC2CCCCC2)c1	0.1
CCCCn1c(N)c(Sc2ccc(Cl)cc2)c(=O)[nH]c1=O	0.3
CC(C)C1Cc2c(sc3[nH]c(=S)n(Cc4ccccc4)c(=O)c23)CO1 (stereo unspecified)	i
CN(c1ccccc1C(=O)Nc1ccc2c(c1)OCCO2)S(C)(=O)=O	0.5
CCCn1cc2c(c1-c1cccc(C)c1)c(=O)n(C)c(=O)n2C	0.2
O=S(=O)(Nc1ccccn1)c1ccc(C2CCCCC2)cc1	1.6
COCCCNC(=O)c1cn(C)c(=O)c2cc(OC)c(OC)cc12	1.4
CC(C)CC(=O)Nc1cccc(C(=O)Nc2ccccc2C(=O)O)c1	2.3
COc1ccc(NC(=O)c2cc3c(s2)CCC3)cc1S(=O)(=O)N1CCOCC1	0.5
CCOC(=O)C1CCN(C(=O)Cc2c(C(=O)O)n(C)c3ccccc23)CC1	0.0
CC(=O)Nc1ccc(S(=O)(=O)NC2=C(N3CCN(Cc4ccccc4)CC3)C(=O)c3ccccc3C2=O)cc1	i
COc1ccc2[nH]c(=O)c(CN(Cc3nnnn3CCc3ccccc3)CC3CCCO3)cc2c1 (stereo unspecified)	i
Cc1cccc(C(=O)Nc2cc(OCc3cccc(F)c3)c(Cl)cc2Cl)c1	i
CC1CCCCC1NC1=NCCS1 (stereo unspecified)	0.2
CCOCCCNC(=O)C1CCCN(S(=O)(=O)CC)C1 (stereo unspecified)	0.8
CSc1nnc(-c2sccc2OCc2ccccc2)n1C	0.2
N/C(=N\c1nc2ccccc2o1)NC(=O)c1ccccc1NC(=O)c1ccccc1	0.3
CO/N=C\C(=N\Nc1ccc(OC)cc1)C(=O)c1ccccc1	1.1
